Screens as filed in PubChem BioAssay.
Calb FLC – C. albicans growth modulation with fluconazole. AID 1979. growth inhibition, % (concentration not given with the values). hit rate 0.57% among 300,000. C. albicans CaCi-2 (fluconazole-resistant clinical isolate) + fluconazole, Alamar Blue growth, 48 h;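 active = most replicates above 75%; inconclusive = exactly half above 75%; inactive = most below 75%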;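 note: all wells also contain fluconazole at 8 µg/ml as a sub-toxic cotreatment; 0% = median of DMSO wells and 100% = median of geldanamycin control wells; wells of about 8 µL received 7.5 nL stock; the first replicate is given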
Beta cell apopt – beta cell apoptosis inhibition. protection from apoptosis, % (no concentration beside the values). hit rate 0.8% among 300,000. AID 435005. INS-1E cytokine-induced death, ATP luminescence, 48 h; percent of positive-control rescue, neutral wells zero;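 active = all replicates at 75% or more, or half of them and the mean; inconclusive = half reach 75% but not the mean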;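 note: 0% = cytokine-treated negative control wells and 100% = positive control rescue; higher means more ATP so stronger rescue from cytokine killing; wells of about 40 µL received 100 nL stock; the first replicate is given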
A1 inh – inhibitors of the anti-apoptotic protein A1, read as caspase activation | hit rate 0.066% among 330,000 | caspase activation, % (no concentration beside the values) | MEF A1-2A-BIM cells, Caspase-Glo 3/7 luminescence, 3 h; percent of clofoctol response, vehicle zero | AID 2462;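 active = over half of replicate activation scores above 10%, or exactly half above 10 with the replicate mean above 10; inconclusive = replicate mean below 10 yet half the replicates above 10; inactive = over half of replicates below 10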;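 note: wells of about 30 µL received 50 nL stock; many hits fall short of the cut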
ALR inh – human ALR oxidase inhibition via reduced H2O2 | hit rate 3.8% among 290,000 | purified ALR, DTT oxidation, H2O2 HRP-luminol luminescence | inhibition, % (concentration not given with the values) | AID 485317;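 active = mean and each replicate at 75% or more; inconclusive = only one of the two met; inactive = neither met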;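 note: stock transfer was 7.5 nL into about 7.5 µL; 0% = neutral wells and 100% = wells with inactivated enzyme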
Target sequence (P55789 whole entry, looked up): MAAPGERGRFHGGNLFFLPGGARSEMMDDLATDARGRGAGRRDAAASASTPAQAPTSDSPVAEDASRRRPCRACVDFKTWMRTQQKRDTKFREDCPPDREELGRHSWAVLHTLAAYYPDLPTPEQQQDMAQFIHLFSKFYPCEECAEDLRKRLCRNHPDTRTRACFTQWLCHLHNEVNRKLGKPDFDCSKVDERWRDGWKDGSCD
Ecoli rRNA inh – inhibitors of bacterial rRNA selective over humanized ribosomes; hit rate 1.6% among 350,000; GFP signal change (wild-type ribosome), % (no concentration beside the values); E. coli WT GFP vs humanized-ribosome RFP mutants, fluorescence, 24 h; active compounds read low; DMSO median 0, no signal -100;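 active = significant combined selectivity score with lowered wild-type GFP, culture density cut under 30%, mutant RFP and density less affected; inactive = any of these conditions unmet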; note: one replicate is shown; some compounds called inactive have numbers as strong as hits
LANA-H2B inh – blocks KSHV LANA binding to histone H2A/H2B | Q9QR71 | cell-free LANA-H2A/H2B peptide, fluorescence polarization | inhibition, % (concentration not given with the values) | hit rate 0.6% among 320,000; in the data active = inhibition mostly above about 10%, no sharp cut-off; inactive = mostly below about 6.7%;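 note: stock transfer was 7.5 nL into about 10 µL; 0% = median of vehicle wells and 100% = median of positive control wells; one replicate is shown; the record names a cut of 25% in any replicate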
Beta2AR agonist – human beta-2 adrenergic receptor agonism by FAP; hit rate 0.43% among 340,000; Am2.2-beta2AR cells, FAP receptor internalization, flow cytometry; reference of the scale not given here; P07550; AID 504454; response, % (concentration not given with the values);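 active = response above a set limit, near 3 SD of response in nonfluorescent compounds, cut at about 42% in these data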;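 note: stock transfer was 100 nL into about 11 µL; a reference agonist was the positive control; negative values mostly stem from fluorescent compounds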
Target sequence (P07550 whole entry, looked up): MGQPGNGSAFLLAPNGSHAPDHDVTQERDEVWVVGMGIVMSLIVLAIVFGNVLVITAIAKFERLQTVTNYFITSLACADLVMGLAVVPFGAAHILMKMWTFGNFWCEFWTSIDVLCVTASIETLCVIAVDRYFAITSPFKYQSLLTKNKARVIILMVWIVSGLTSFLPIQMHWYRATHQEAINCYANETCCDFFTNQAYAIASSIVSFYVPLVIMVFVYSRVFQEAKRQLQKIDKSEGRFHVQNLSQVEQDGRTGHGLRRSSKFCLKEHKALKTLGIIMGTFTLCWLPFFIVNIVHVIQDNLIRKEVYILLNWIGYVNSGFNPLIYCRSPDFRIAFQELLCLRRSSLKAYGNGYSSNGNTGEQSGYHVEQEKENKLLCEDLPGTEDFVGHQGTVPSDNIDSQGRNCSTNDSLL
T cruzi inh – blocks replication of Trypanosoma cruzi. hit rate 1.4% among 300,000. T. cruzi beta-gal in NIH3T3, luminescence, 90 h. inhibition, % (concentration not given with the values);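 active = mean inhibition across valid replicates above about 55%, limit read from the data; inconclusive = mean below that limit but half or more replicates reach it; inactive = mean below it, under half of replicates reach it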;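 note: signal also drops with host cell toxicity which is not excluded here; 0% = plate median of DMSO wells and 100% = zero luminescence signal; higher percent means less beta-gal luminescence so fewer parasites; stock transfer was 50 nL into about 50 µL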
Ecoli rRNA inh OD600 – second read-out of Ecoli rRNA inh, no call of its own (marks repeat the call); OD600 change, %; measured here: OD600 growth;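 optical density of the mix in the first replicate; 0 = DMSO median and -100 = no signal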
Ecoli rRNA inh RFP – also measured in Ecoli rRNA inh; calls as there; RFP signal change, %; measured here: RFP humanized mutant strains;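 first replicate; 0 = DMSO median and -100 = no signal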
The depositor's hits bear a star; ? = inconclusive; . = not tested or not shown. The list is partial; the hit share may differ from the screen's.

SMILES	Calb FLC	Beta cell apopt	A1 inh	ALR inh	Ecoli rRNA inh	Ecoli rRNA inh OD600	Ecoli rRNA inh RFP	LANA-H2B inh	Beta2AR agonist	T cruzi inh
Cn1c(SCCN2CCCC2)nnc1C1CCN(S(=O)(=O)c2cccc(F)c2)CC1	-7.8	5.6	1.2	.	7.0	14.1	-1.4	5.6	1.5	32.6
CCOC(=O)Cc1csc(NC(=O)CSc2nnnn2-c2ccc(CC)cc2)n1	-2.8	2.1	0.3	-28.9	.	.	.	-2.9	-0.3	6.2
O=C(O)CCN1C(=O)/C(=C\c2cccc(Oc3ccccc3)c2)SC1=S	30.3	.	-2.8	.	-10.2	-7.0	2.1	-4.2	10.2	20.0
CC(O)c1nc2ccccc2n1C1CCCCC1 (stereo not drawn)	1.1	-4.5	-1.0	-3.4	.	.	.	3.8	0.1	4.2
NS(=O)(=O)c1ccc(NC(=O)COC(=O)C2CCCCC2)cc1	2.1	-0.7	0.1	-0.4	.	.	.	-0.6	2.8	-18.4
Brc1ccc(Sc2cnc3ccccc3n2)cc1	0.2	-4.7	1.0	-11.7	.	.	.	6.4	-5.5	10.0
Cc1ccccc1C(=O)c1cccn1CC(=O)NC1CCCC(C)C1C (stereo not drawn)	-8.1	-4.6	0.0	3.3	-1.9	-0.1	2.1	-3.0	-3.0	6.4
CCN(CC)c1ccc(NC(=S)NC(=O)C2CCC2)cc1	-22.4	2.9	-0.4	98.6*	-3.1	-4.6	4.1	-1.8	8.8	10.5
CC1=CC(=O)N(c2cccc(C(F)(F)F)c2)C1c1ccc(Cl)cc1 (stereo not drawn)	-4.2	1.7	-1.4	-14.3	.	.	.	-0.8	-1.3	8.6
O=C(NCCS(=O)(=O)NCc1ccc(F)cc1)c1ccc2c(c1)OCO2	-4.7	1.2	-0.3	-5.0	1.5	4.7	-2.8	-2.0	6.3	-1.6
COc1cccc(OCC(=O)Nc2c3c(nn2-c2ccc(F)cc2)CS(=O)(=O)C3)c1	0.4	-1.4	-0.7	-24.1	4.0	10.6	1.1	-0.3	0.6	3.0
CC(C)C(=O)Nc1cccc(NC(=O)CCN2C(=O)c3ccccc3S2(=O)=O)c1	7.3	4.0	0.3	.	3.8	7.6	-2.9	1.5	1.0	-4.8

Continued; the last 6 above are carried over.
SMILES	Calb FLC	Beta cell apopt	A1 inh	ALR inh	Ecoli rRNA inh	Ecoli rRNA inh OD600	Ecoli rRNA inh RFP	LANA-H2B inh	Beta2AR agonist	T cruzi inh
Cc1ccccc1C(=O)c1cccn1CC(=O)NC1CCCC(C)C1C (stereo not drawn)	-8.1	-4.6	0.0	3.3	-1.9	-0.1	2.1	-3.0	-3.0	6.4
CCN(CC)c1ccc(NC(=S)NC(=O)C2CCC2)cc1	-22.4	2.9	-0.4	98.6*	-3.1	-4.6	4.1	-1.8	8.8	10.5
CC1=CC(=O)N(c2cccc(C(F)(F)F)c2)C1c1ccc(Cl)cc1 (stereo not drawn)	-4.2	1.7	-1.4	-14.3	.	.	.	-0.8	-1.3	8.6
O=C(NCCS(=O)(=O)NCc1ccc(F)cc1)c1ccc2c(c1)OCO2	-4.7	1.2	-0.3	-5.0	1.5	4.7	-2.8	-2.0	6.3	-1.6
COc1cccc(OCC(=O)Nc2c3c(nn2-c2ccc(F)cc2)CS(=O)(=O)C3)c1	0.4	-1.4	-0.7	-24.1	4.0	10.6	1.1	-0.3	0.6	3.0
CC(C)C(=O)Nc1cccc(NC(=O)CCN2C(=O)c3ccccc3S2(=O)=O)c1	7.3	4.0	0.3	.	3.8	7.6	-2.9	1.5	1.0	-4.8
COc1ccccc1N1CCN(C2CCCN(C(=O)CN3CCCC3=O)C2)CC1 (stereo not drawn)	-17.5	-7.3	1.0	8.3	4.0	-1.4	-1.6	-13.7	3.7	4.3
O=C(CSCc1nc2ccccc2[nH]1)Nc1ccccc1	0.6	0.8	-0.1	-11.0	.	.	.	-0.8	-2.4	-17.5
C(#CCN1CCOCC1)COCCCOC(c1ccccc1)c1ccccc1	6.9	-7.3	0.2	-4.4	.	.	.	-1.0	3.7	-1.2
CCOc1ccc2nc(N/C(N)=N/C(=S)Nc3cccc(C)c3)nc(C)c2c1	10.8	1.0	1.4	-4.0	-9.6	-33.9	1.7	0.4	4.0	47.7
Cc1c(CN(C)C(=O)c2ccc(Br)o2)cnn1C	-5.9	-2.3	1.0	8.8	9.2	15.2	1.0	-1.7	3.0	-5.6
CCN(CC)CCOC(=O)c1ccc(N/C=C(/C#N)c2nc(-c3cccc(OC)c3)cs2)cc1	10.0	7.8	-0.1	6.4	.	.	.	1.7	2.5	15.0
CC(C)c1ccc(NC(=O)C(c2ccccc2)N2CC(=O)Nc3ccccc32)cc1 (stereo not drawn)	-6.0	5.1	-1.3	-5.6	-13.2	-12.2	4.1	-3.4	0.9	5.3
Nc1cccc(Oc2c(F)c(F)c(Oc3cccc(N)c3)c(F)c2F)c1	-32.3	-0.9	1.1	-6.1	-19.3	-34.7	-3.9	-1.5	-2.4	-6.0
O=C(COc1ccccc1Cl)Nc1nnc(S(=O)(=O)N2CCCCCC2)s1	-0.3	-1.0	0.0	.	.	.	.	-3.8	13.9	-0.3
COc1ccc(-c2nn(-c3ccccc3)cc2C(N)=O)cc1OC	3.5	-0.5	0.2	2.8	-7.7	-0.6	-2.5	-6.5	-25.0	2.7
CSc1nc2cc(C)nn2c(-c2ccccc2)c1C#N	7.7	.	0.3	.	21.5	6.4	-0.5	1.8	-4.4	2.2
COc1ccccc1C1C=C(c2ccc(Cl)cc2)Nc2nc(NS(C)(=O)=O)nn21 (stereo not drawn)	1.1	2.4	0.2	26.6	.	.	.	0.3	.	-5.6
O=C(NNC1OC(CO)C(O)C(O)C1O)c1cccc(Br)c1 (stereo not drawn)	7.1	0.5	-0.4	.	11.4	11.1	3.1	2.1	5.3	0.1
C=CCN1C=C2C(=O)C(C)(OC(=O)CC)C(=O)C=C2C=C1CCCC (stereo not drawn)	36.8	-10.0	-0.2	.	6.1	0.5	8.0	0.4	-4.2	7.1
O=c1c2cc(-c3ccccc3)sc2nc2n1CCC2	-16.6	-1.5	-11.6	-4.8	6.5	10.0	2.8	-1.8	.	-12.4
O=C(Nc1ccc2c(c1)OCO2)N1CCN(c2cccc(C(F)(F)F)c2)CC1	-29.2	1.2	1.1	-10.8	.	.	.	-2.0	4.0	0.8
Cc1ccc(C)c(-c2csc(NC(=O)c3cnccn3)n2)c1	24.8	3.2	0.4	6.5	13.1	1.7	-0.7	-1.7	2.5	92.5*
Cc1cccc(OCC(=O)Nc2cccc(C(=O)Nc3ccccc3C(=O)O)c2)c1	26.0	3.6	-1.2	27.9	.	.	.	-1.9	6.0	4.8
O=c1c2cc(Br)ccc2nc(-c2ccc([N+](=O)[O-])cc2)n1O	109.7*	-1.6	0.0	-0.3	1.8	-8.8	-1.7	1.7	0.4	-1.2
COc1ccc(CCNC2CC(=O)N(CCc3ccccc3)C2=O)cc1OC (stereo not drawn)	19.3	5.6	-0.3	-1.9	.	.	.	1.0	-2.9	-10.8
O=C(COc1cc(Cl)ccc1Cl)Nc1ccc2[nH]c(=O)[nH]c2c1	8.7	4.2	0.3	-2.7	7.6	4.9	-2.8	-1.3	-2.9	-5.0
CCCCN(C(=O)/C=C/c1ccc(OCC(C)C)c(OCC)c1)c1c(N)n(CCC)c(=O)[nH]c1=O	-2.3	-0.1	0.7	-8.0	4.8	9.9	2.2	1.8	4.2	-0.2
COCCCn1c(SCC(=O)Nc2oc(C)c3c(C)n[nH]c(=O)c23)nc2ccccc2c1=O	-4.4	0.6	0.2	-14.8	9.0	-1.6	1.0	1.6	19.1	2.2
CCOc1ccc(CNC(=O)Cn2ccc3cc(S(=O)(=O)N4CCCCCC4)ccc32)cc1	-5.3	0.5	1.1	-14.2	0.0	7.8	0.8	2.7	1.6	10.5
CCOC(=O)c1c(-c2ccc(C)s2)csc1N	25.5	-6.9	-0.4	12.6	8.5	21.0	10.6	-2.1	1.8	7.7
CCc1cccc(CC)c1NC(=O)c1cccc(S(=O)(=O)N2CCN(C)CC2)c1	-11.7	-6.1	0.2	-18.5	1.3	7.9	2.0	1.0	-2.9	-2.4
COc1ccc(CCNC(=O)C2CCN(S(=O)(=O)c3cccc4cccnc34)CC2)cc1OC	-3.2	0.1	0.0	-4.0	.	.	.	4.5	12.4	30.6
COc1cccc(-c2ccc(SCC(=O)NC3CCCCC3)nn2)c1	-19.6	4.8	-0.9	-8.9	-7.0	5.0	3.0	4.7	-5.6	7.5
COc1ccc(C2/C=C\CN(C(=O)Oc3ccccc3)CC(=O)N2Cc2ccc(F)cc2)cc1 (stereo not drawn)	3.0	.	.	.	-29.1	-24.1	2.0	.	1.0	13.0
COc1ccccc1C(=O)COC(=O)Cc1c[nH]c2ccccc12	5.6	-2.2	1.5	-0.7	-7.6	-3.9	0.2	0.7	5.9	-16.6
CCC1=Nc2cc(C(=O)NCCCN3CCOCC3)ccc2Sc2ccc(Br)cc21	3.9	15.2	1.7	.	0.2	-11.5	3.3	3.6	-3.1	26.7
CCCCN1C(=O)N(C)C2C1N(C)C(=O)N2CCCC (stereo not drawn)	3.6	-7.0	-0.1	-8.7	.	.	.	-2.1	-2.0	3.0
CCOc1ccc(N2CCc3c(C)nc(SC)nc32)cc1	-27.7	2.5	-0.2	2.5	-3.1	0.7	-4.5	1.9	-6.2	10.8
c1ccc(CN2CCC(N3CCC(N4CCCCCC4)CC3)CC2)cc1	-2.8	-2.2	-0.3	-3.7	11.8	2.6	-1.6	-1.0	-7.7	38.7
Cc1ccc(-c2c(C)nn3c(N4CCOCC4)cc(C)nc23)cc1	-8.2	1.4	0.1	3.1	-2.2	-3.7	0.0	-6.6	7.0	-6.9
O=S(=O)(c1cccc(Br)c1)N1CCN(c2ccnc3cc(Cl)ccc23)CC1	3.3	43.5	-0.5	-1.8	1.1	-1.8	6.8	2.1	-3.1	25.1
COc1ccc(C(C(=O)NC(C)(C)C)N(Cc2ccc(C)cc2)C(=O)CCC(=O)Nc2cc(C)on2)cc1 (stereo not drawn)	27.9	1.6	?	-9.3	-0.3	8.5	0.3	-0.4	-4.7	17.0
NC(=O)c1ccc(NC(=O)c2cccc(Oc3ccccc3)c2)cc1	-1.6	-5.2	-4.2	2.6	9.3	5.4	2.6	4.2	-16.6	2.5
CN(C)c1ccc(NC(N)=S)cc1	-2.5	7.3	0.7	98.8*	0.3	8.5	1.1	2.6	-3.0	0.0
CC(C)c1ccc(NC(=S)N2CCN(Cc3ccccc3)CC2)cc1	3.7	-0.7	-0.2	-14.0	-35.8	-57.7	7.7	0.9	2.9	0.7
CCNS(=O)(=O)c1ccc(NC(=O)c2cncc(Br)c2)cc1	8.2	-2.4	2.1	?	.	.	.	-4.3	-0.7	16.2
COc1ccc(CCN=C(N)NS(=O)(=O)c2ccc(C)c(C)c2)cc1	16.6	-0.9	0.4	0.2	-3.9	-4.1	-2.1	-0.3	2.8	4.2
